# Assay outcomes deposited in PubChem BioAssay by Broad Institute.
# T cruzi repl: inhibitors of intracellular T. cruzi growth, primary screen, luminescence, NIH3T3 host cells | actives 1.4% (n = 300,000) | inhibition, % (concentration not given with the values) | AID 1885, 2009 | T. cruzi beta-gal in NIH3T3, 90 h;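 active = mean inhibition across valid replicates above about 55%, limit read from the data; inconclusive = mean below that limit but half or more replicates reach it; inactive = mean below it, under half of replicates reach it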;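 note: signal also drops with host cell toxicity which is not excluded here; 0% = plate median of DMSO wells and 100% = zero luminescence signal; higher percent means less beta-gal luminescence so fewer parasites; stock transfer was 50 nL into about 50 µL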
# Calb FLC: C. albicans growth inhibition with fluconazole, primary screen, CaCi-2 strain, Alamar Blue fluorescence. C. albicans CaCi-2 (fluconazole-resistant clinical isolate) + fluconazole, 48 h. growth inhibition, % (no concentration beside the values). actives 0.57% (n = 300,000);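 active = most replicates above 75%; inconclusive = exactly half above 75%; inactive = most below 75%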;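 note: all wells also contain fluconazole at 8 µg/ml as a sub-toxic cotreatment; 0% = median of DMSO wells and 100% = median of geldanamycin control wells; wells of about 8 µL received 7.5 nL stock; the first replicate is given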
# MLL AF4-AF9 inh: inhibitors of AF4 peptide binding to AF9, primary screen, biochemical, AlphaScreen, biotin-AF4 peptide, FLAG-AF9, single point | Protein AF-9 (Homo sapiens), P42568 | inhibition, % at 10 µM | actives 0.47% (n = 350,000);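 active = every replicate reaching a set inhibition limit, whatever the replicate mean, cut at about 25% in these data; inconclusive = mean inhibition reaches that limit but some replicates miss it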;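 note: 0% = plate neutral control median and 100% = total signal loss; the record names both 10 and 1 µM as test concentration; the first replicate is given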
# Target sequence (P42568 whole entry, looked up): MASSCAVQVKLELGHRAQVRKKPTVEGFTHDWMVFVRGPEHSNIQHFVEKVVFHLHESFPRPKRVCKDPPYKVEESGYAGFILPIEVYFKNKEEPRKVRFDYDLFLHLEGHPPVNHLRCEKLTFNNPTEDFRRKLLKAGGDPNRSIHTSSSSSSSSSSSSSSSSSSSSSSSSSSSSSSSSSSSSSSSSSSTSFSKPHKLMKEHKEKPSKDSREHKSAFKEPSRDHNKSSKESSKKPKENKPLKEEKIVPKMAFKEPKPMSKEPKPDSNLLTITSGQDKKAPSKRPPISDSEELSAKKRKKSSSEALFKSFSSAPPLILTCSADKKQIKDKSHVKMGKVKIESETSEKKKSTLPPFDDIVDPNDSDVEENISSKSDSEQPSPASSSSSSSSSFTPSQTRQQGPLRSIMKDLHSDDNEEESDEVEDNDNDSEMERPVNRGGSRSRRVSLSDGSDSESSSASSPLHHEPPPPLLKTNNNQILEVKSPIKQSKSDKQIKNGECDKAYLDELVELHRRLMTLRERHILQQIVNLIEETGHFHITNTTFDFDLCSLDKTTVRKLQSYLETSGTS
# RanGTP-Imp inh: inhibitors of RanGTP-importin-beta interaction, primary screen, biochemical, FRET, CFP-Ran, YFP-importin-beta, homogeneous; inhibition, % (no concentration beside the values); actives 1.1% (n = 300,000); Ran GTPase (GTP-bound) - importin-beta complex; cell-free CFP-Ran/YFP-importin-beta FRET ratio;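 active = most replicates above 15%; inconclusive = exactly half above 15%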;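 note: 0% = DMSO wells and 100% = Ran loaded with GDP instead of GTP; wells of about 40 µL received 100 nL stock; the first replicate is given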
# FGF22 binding: binders of human FGF22 protein, primary screen, FGF22 synaptogenesis inhibitor project, biophysical, thermal shift, single point; actives 1.5% (n = 340,000); recombinant FGF22 thermal shift, SYPRO orange fluorescence; percent of sucrose octasulfate shift, DMSO zero; calls only at 9.99 µM; AID 651658, 2012;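 active = melting point raised past a set limit in the mean and every replicate; inconclusive = no clear call; three in four hits are not shown here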
# Target sequence (Q9HCT0 whole entry, looked up): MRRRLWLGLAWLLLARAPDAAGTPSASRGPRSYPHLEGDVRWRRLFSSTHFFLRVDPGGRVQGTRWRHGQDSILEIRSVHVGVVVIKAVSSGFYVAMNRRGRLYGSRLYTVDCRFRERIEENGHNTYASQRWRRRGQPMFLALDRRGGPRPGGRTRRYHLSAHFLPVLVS
# Beta cell apopt: inhibitors of cytokine-induced beta cell apoptosis, primary screen, luminescence | AID 435005, 2010 | INS-1E cytokine-induced death, ATP luminescence, 48 h; percent of positive-control rescue, neutral wells zero | actives 0.8% (n = 300,000) | protection from apoptosis, % (test concentration not listed);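 active = all replicates at 75% or more, or half of them and the mean; inconclusive = half reach 75% but not the mean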;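 note: 0% = cytokine-treated negative control wells and 100% = positive control rescue; higher means more ATP so stronger rescue from cytokine killing; wells of about 40 µL received 100 nL stock; the first replicate is given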
# ALR H2O2 inh: inhibitors of human ALR sulfhydryl oxidase, primary screen, biochemical, H2O2 detection, HRP-luminol luminescence, single point; inhibition, % (concentration not given with the values); FAD-linked sulfhydryl oxidase ALR (Homo sapiens), P55789; purified ALR, DTT oxidation; AID 485317, 2010; actives 3.8% (n = 290,000);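 active = mean and each replicate at 75% or more; inconclusive = only one of the two met; inactive = neither met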;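 note: stock transfer was 7.5 nL into about 7.5 µL; 0% = neutral wells and 100% = wells with inactivated enzyme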
# Target sequence (P55789 whole entry, looked up): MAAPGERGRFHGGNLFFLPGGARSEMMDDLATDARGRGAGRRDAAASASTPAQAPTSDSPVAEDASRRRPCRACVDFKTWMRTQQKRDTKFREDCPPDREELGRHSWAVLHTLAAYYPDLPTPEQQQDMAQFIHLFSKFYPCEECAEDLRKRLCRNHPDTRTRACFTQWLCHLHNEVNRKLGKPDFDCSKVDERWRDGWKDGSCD
# Ecoli rRNA inh: reduced GFP signal of wild-type E. coli, primary screen, bacterial rRNA inhibitor project, GFP/RFP fluorescence, OD600, single point; E. coli WT GFP vs humanized-ribosome RFP mutants, 24 h; active compounds read low; DMSO median 0, no signal -100; GFP signal change (wild-type ribosome), % (test concentration not listed); actives 1.6% (n = 350,000); AID 720706, 2013;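 active = significant combined selectivity score with lowered wild-type GFP, culture density cut under 30%, mutant RFP and density less affected; inactive = any of these conditions unmet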; note: one replicate is shown; some compounds called inactive have numbers as strong as hits
# Ecoli rRNA inh OD600: recorded beside Ecoli rRNA inh, whose call it bears; OD600 change, %; measured here: OD600 growth;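 optical density of the mix in the first replicate; 0 = DMSO median and -100 = no signal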
# Ecoli rRNA inh RFP: further read-out of Ecoli rRNA inh, marked with its call; RFP signal change, %; measured here: RFP humanized mutant strains;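 first replicate; 0 = DMSO median and -100 = no signal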
# * hit, by the source's call; i = inactive; ? = inconclusive; / = not tested or not shown.
SMILES,T cruzi repl,Calb FLC,MLL AF4-AF9 inh,RanGTP-Imp inh,FGF22 binding,Beta cell apopt,ALR H2O2 inh,Ecoli rRNA inh,Ecoli rRNA inh OD600,Ecoli rRNA inh RFP
Cc1ccc(C(C)C)c(OC/C(O)=C(\C#N)c2nc3ccccc3[nH]2)c1,-30,-3,0.6,1.4,i,22,-17,8,18,1.4
CC(Sc1nc2ccccc2[nH]1)C(=O)Nc1ccc2c(c1)OCCO2 (stereo not drawn),-3,11,/,-2.0,/,-13,-15,/,/,/
CCc1cccc(NC(=O)C2CCN(c3ncnc4sc(C)c(C)c34)CC2)c1,/,/,-2.5,/,i,4,-4,-20,-34,7.7
Cc1ccccc1Cn1cnc2ccccc2c1=O,-5,5,2.0,3.9,i,2,-2,0,3,-6.6
CCN(CCn1cccn1)C(=O)CCc1nnc(C2CCCCC2)o1,-12,5,-33,-6.3,i,-7,0,4,0,-2.7
COc1ccc(/C(O)=C2/C(=O)C(=O)N(CCCN3CCOCC3)C2c2ccc(C(C)C)cc2)cc1 (stereo not drawn),-3,1,1.6,1.0,i,-3,9,11,2,-4.4
CCOc1ccc(NC(=O)CN2C(=O)CSC(C)C2=O)cc1 (stereo not drawn),0,-5,-1.3,3.9,i,-2,?,22,13,2.0
CCN1CCN(C(c2ccc(OC)cc2)c2nnnn2Cc2ccc3c(c2)OCO3)CC1 (stereo not drawn),46,-22,2.2,6.7,i,-5,/,14,14,-0.6
Cc1cccc(N(C(=O)CCC(=O)Nc2cccnc2)C(C(=O)NC2CCCC2)c2ccncc2)c1 (stereo not drawn),-19,-3,/,1.8,/,2,0,/,/,/
CCC(=O)N(CC)Cc1cc(=O)[nH]c2ccccc12,7,-3,/,0.0,/,-3,-1,/,/,/
CC(=O)c1ccc(N2CCN(C(=O)c3ccc4[nH]c(C)c(C)c4c3)CC2)cc1,/,/,4.4,/,i,6,1,-7,-11,-3.5
Cc1cc(SCC(=O)Nc2ccccc2)nc(C)n1,-3,-11,/,1.4,/,2,-8,/,/,/
CN(c1ccccc1)S(=O)(=O)c1cccc(NC(=O)CSc2ncn[nH]2)c1,-16,10,/,5.6,/,39,/,/,/,/
O=C(Nc1ccc(N2CCOCC2)c(S(=O)(=O)Nc2cc(Cl)ccc2Cl)c1)c1cccnc1,6,9,-1.7,1.7,i,-3,-4,-35*,-25*,-0.7*
Cc1cc(-c2ccccc2)nc(N2CCC(C(=O)NC34CC5CC(CC(C5)C3)C4)CC2)n1,45,-8,/,0.9,/,/,-6,/,/,/
CCCc1nnc(SCC(=O)O)n1/N=C/c1ccc2c(c1)OCO2,-16,-1,7.2,2.3,i,0,45,7,9,4.5
COC(=O)c1c(C)oc(C)c1S(=O)(=O)NCc1ccc(OC)cc1,-14,-7,/,1.1,i,4,1,-3,-19,1.1
CCOc1ccc(NC(=S)N(CCCN2CCCC2)Cc2cccn2Cc2ccc(Cl)cc2)cc1,51,5,18,-3.6,i,7,0,6,-13,-0.3
Cc1ccc(S(=O)(=O)N2CCC(C(=O)NC3CC(C)(C)NC(C)(C)C3)CC2)cc1,2,7,-2.5,-2.8,i,2,3,7,19,-4.1
Fc1ccc2[nH]c3c(Cl)ncnc3c2c1,-20,9,-2.1,5.5,i,1,95*,-18,-26,11
Cn1c(COc2ccc(Cl)cc2)nnc1SCC(=O)NC1CCCC1,-15,2,-2.3,0.7,i,4,-7,-1,4,1.5
CCOC(=O)c1ccc(NC(=O)Nc2ccn(C)n2)cc1,-5,73,5.2,-0.2,i,3,-2,-13,-4,-1.3
CC#CCN(CC#CC)S(=O)(=O)c1ccc(S(=O)(=O)N2CCOCC2)cc1,-42,/,/,4.9,/,6,-7,/,/,/
COCCSc1nnc(NC(=O)c2cc(OC)c(OC)cc2[N+](=O)[O-])s1,-4,10,-21,-2.6,/,4,-16,-11,-13,-9.4
COc1ccccc1CNC(=O)N1CCN(c2ccccc2Cl)CC1,17,-4,2.0,2.8,i,-4,0,8,4,15
O=C(COC(=O)CCc1nc2ccccc2s1)Nc1nc(-c2ccccc2)cs1,-5,60,-1.1,-0.4,i,0,-5,12,6,0.5
COC(=O)c1nn(C23CC4CC(CC(C4)C2)C3)c2c1C(=O)N(c1ccc(F)cc1)C2=O,-10,-4,/,6.2,/,-3,-2,/,/,/
COc1cc(OC)nc(/N=C/NO)n1,-7,-4,0.8,-1.9,i,-7,-3,4,4,-0.8
COc1ccc(C(=O)NNC(=O)c2cc3cccc(OC)c3oc2=O)cc1,4,-4,0.3,-0.3,i,-5,-3,4,8,2.1
CCCCN(C(=O)c1c(C)[nH]c(C(=O)OCC)c1C)c1ccccc1,5,-4,/,?,/,2,3,/,/,/
COc1ccc(C(=O)NC(=S)Nc2ccc(N3CCOCC3)c(Cl)c2)cc1[N+](=O)[O-],3,-6,/,0.2,/,6,-15,/,/,/
COc1ccc(CN(C(=O)CN2C(=O)c3ccccc3S2(=O)=O)C(C(=O)NCC2CCCO2)c2ccco2)cc1 (stereo not drawn),-2,-7,2.1,2.9,i,-6,-10,-3,2,0.6
O=C1NCCN1CCNS(=O)(=O)c1ccc2ccccc2c1,5,-1,/,-1.2,/,-1,-13,/,/,/
CCOc1ccccc1-n1nnnc1SCC(=O)Nc1cc2oc3ccccc3c2cc1OC,52,0,/,5.8,/,6,0,/,/,/
CCC(C)[C@H](NC(=O)[C@@H]1Cc2c([nH]c3ccccc23)C2c3ccccc3C(=O)N21)C(=O)NCC1CCCO1 (stereo partly drawn),0,9,1.0,1.8,i,10,-3,/,/,/
O=C(OCC1COc2ccccc2O1)c1c(F)cccc1F (stereo not drawn),-3,6,/,2.7,/,/,-3,/,/,/
COc1cccc(NC(=O)NCc2cccn2C)c1,-13,3,/,7.5,/,1,-3,/,/,/
CC(=O)c1cc(C#N)c(SCc2ccc(F)cc2)nc1C,5,1,/,-0.6,/,3,-1,/,/,/
COCCCC1CCN(C(=O)C2CCC(=O)N(C3CCCCCC3)C2)CC1 (stereo not drawn),2,-9,0.6,?,i,0,-7,1,10,1.0
CCS(=O)(=O)c1nc(S(=O)(=O)c2ccc(Cl)cc2)c(NCCCN2CCOCC2)s1,-23,-4,7.0,-3.9,i,-3,2,5,7,0.3
CC(C)CCNC(=O)C(c1cccnc1)N(CCc1ccccc1)C(=O)Cn1nnc2ccccc21 (stereo not drawn),23,3,/,-2.0,/,-1,-1,/,/,/
O=C(NCc1cccs1)C(=O)NCC(c1ccco1)N1CCN(c2ccccc2)CC1 (stereo not drawn),2,-14,-13,-3.5,i,3,98*,2,5,-3.5
O=C(CSc1ccccc1)OCC(=O)N1CCN(C(=O)c2ccco2)CC1,/,/,-10,/,i,3,-20,7,13,1.3
Cc1ccc2cc(/C=N/NC(=O)CN3CCCCC3)c(Cl)nc2c1,0,-25,0.2,3.0,i,-3,-1,10,-2,2.0
CCOC(=O)COc1ccc(C)cc1-c1ccno1,-2,4,/,-3.5,/,-4,-28,/,/,/
CCCCCC(=O)N1CCCCC1,-3,0,0.2,-1.5,i,-4,-4,4,12,0.6
Cc1ccsc1C(C(=O)NC1CCCCC1)N(C(=O)c1csnn1)C1CC1 (stereo not drawn),17,-6,/,1.5,/,-4,7,/,/,/
CC(=O)Nc1cccc(C(=O)OC(C)C(=O)NC(=O)NC2CCCCC2)c1 (stereo not drawn),3,/,0.1,-3.5,i,-1,-3,-3,-6,-0.2
CCc1nc(Nc2ccc3c(c2)OCCO3)c2oc3ccccc3c2n1,33,-9,/,3.1,/,7,5,/,/,/
CCN(CC)S(=O)(=O)c1ccc(-c2nnc3sc4cccc(C)c4n23)cc1,0,-1,3.4,4.3,i,27,63,-7,-33,-4.4
COc1ccc(CNc2ccc(Cl)cc2)cc1Cn1ccnc1,59*,16,18,0.5,i,6,/,-40,-36,-5.4
N/C(=N\S(=O)(=O)c1ccc(Cl)s1)c1ccccc1,-7,-2,/,2.4,/,-4,-5,/,/,/
Nc1[nH]n2c(=O)cc(-c3ccccc3)nc2c1N=Nc1ccc2c(c1)OCO2,0,-5,/,-0.5,/,8,-1,/,/,/
O=[N+]([O-])c1cccc(CNc2ccc3c(c2)CCC3)c1,-8,13,/,4.5,/,-6,45,/,/,/
CSc1ncc(C(=O)Nc2ccc(C(C)=O)cc2)c(-c2ccccc2)n1,14,10,0.2,3.1,i,10,-6,12,8,-8.5
CCOC(=O)c1ccc2nc(C)cc(Nc3cccc(C(=O)O)c3)c2c1,-20,6,/,3.6,/,/,-11,/,/,/
NS(=O)(=O)c1ccc(CCNC(=O)c2ccc3c(c2)N(Cc2ccccc2)CCS3)cc1,4,22,-1.8,-3.1,i,0,18,4,20,-0.2
CC(C)C(=O)Nc1nc(-c2ccccc2)ns1,3,31,/,-2.0,/,-3,-3,/,/,/
CCOC(=O)c1ccc(NC(=S)N2CCN(C(=O)C3CCCO3)CC2)cc1 (stereo not drawn),3,-9,-4.6,4.0,i,-5,4,2,4,1.5
CN(C)S(=O)(=O)c1ccc(N2CCCC2)c(C(=O)NCc2ccc(Cl)cc2)c1,13,2,/,-1.2,/,-3,-5,/,/,/
# (list continues)
SMILES,T cruzi repl,Calb FLC,MLL AF4-AF9 inh,RanGTP-Imp inh,FGF22 binding,Beta cell apopt,ALR H2O2 inh,Ecoli rRNA inh,Ecoli rRNA inh OD600,Ecoli rRNA inh RFP
CCN(CC)S(=O)(=O)c1ccc2c(c1)nc(CCC(=O)Nc1cccc(C(F)(F)F)c1)n2CC,30,-13,/,0.8,/,8,5,/,/,/
CC(C)NS(=O)(=O)c1ccc(CCC(=O)N2CCC(C(N)=O)CC2)cc1,-18,?,-0.5,-1.5,i,/,-1,8,8,0.6
Cc1cccc(NC(=S)N2CCN(c3ccc(F)cc3)CC2)c1,-24,-8,2.5,?,i,-3,0,-4,2,-2.8
Cc1cc(C(=O)Nc2ccc(S(=O)(=O)Nc3onc(C)c3C)cc2)cs1,-19,0,/,1.0,/,-5,97*,/,/,/
CCOC(=O)c1c(NC(=O)CSc2nc3ccccc3c(=O)n2-c2ccccc2)sc(C(C)=O)c1C,23,12,0.0,6.9,i,-7,-8,4,6,0.7
CCOC(=O)C1CCCN(C(=O)C2CCN(S(=O)(=O)c3cccs3)CC2)C1 (stereo not drawn),9,-8,/,0.3,/,-3,6,/,/,/

# The list is partial. The share of hits here may be higher or lower than overall.
